# Sa RN4220 lethal: kills Staphylococcus aureus RN4220; S. aureus RN4220 growth, OD600, 16 h; inhibition, % (concentration not given with the values); 330,000 compounds, 0.33% hits; AID 1259311;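 active = z-score of -3 or lower and OD600 up to 0.18 on both plates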;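 note: plate controls were untreated cells for no effect and reference antibiotic for full effect; stock transfer was 100 nL into about 80 µL; one replicate is shown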
# Mtb hypoxia rep: Mtb hypoxia fluorescent reporter inhibition; M. tuberculosis hypoxia-regulated fluorescent reporter, fluorescence; fluorescence inhibition, % (no concentration beside the values); 300,000 compounds, 0.1% hits; AID 1159583;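 active = 35 to 45% if threefold the growth effect, above 45% if 1.5-fold the growth effect; inactive = the rest, general growth blockers included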;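 note: wells of about 50 µL received 100 nL stock; 0% = vehicle wells and 100% = reference inhibitor wells; whole bacteria with a GFP reporter of the hypoxia response; strong numbers were not always called active; many hits fall short of the cut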
# PrP 5UTR inh: suppresses PrP 5' UTR mRNA reporter expression | AID 488862 | inhibition, % (concentration not given with the values) | 340,000 compounds, 0.35% hits | cell-based PrP 5' UTR mRNA reporter, plate reader;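 active = every replicate at 50% or more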;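 note: 0 = median of the neutral control wells; tested in H4 reporter cells; numbers are from one replicate; inactives centre near -14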
# BJeLR viability: kills HRASV12-expressing BJeLR cells | 300,000 compounds, 0.17% hits | AID 1554 | BJeLR (HRASV12) viability, CellTiter-Glo ATP luminescence, 48 h; reference of the scale not given here | inhibition, % (test concentration not listed);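 active = replicate mean above 50%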;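 note: 50 nL library stock added to about 25 µL; numbers are from one replicate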
# Sa ugtP lethal: compounds lethal to S. aureus RN4220 ugtP deletion mutant; OD600 growth, 16 h; some inactives read as strong as hits; growth inhibition, % (no concentration beside the values); 330,000 compounds, 0.54% hits; AID 1259309;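 active = z-score under -3 and OD600 up to 0.15 on both plates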;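 note: plate controls were untreated wells for no effect and antibiotic for full effect; wells of about 80 µL received 100 nL stock; the first replicate is given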
# Autofluor counter: counter-screen for toxin protease inhibitors: compound fluorescence | compound autofluorescence counterscreen, microsphere flow cytometry; active compounds read high | fluorescence intensity (test concentration not listed) | 360,000 compounds, 3.1% hits;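 active = at least 3 SD above the mean of all compounds, about 16000 in these data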;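 note: 100 nL of 1 mM stock went into each well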
# Mtb hypoxia rep growth: recorded beside Mtb hypoxia rep, whose call it bears; growth inhibition, %; measured here: M. tuberculosis growth (absorbance);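 0% = vehicle and 100% = reference antibiotic; read after six days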
# * = called active by the depositor; . = no result given.
SMILES,Sa RN4220 lethal,Mtb hypoxia rep,Mtb hypoxia rep growth,PrP 5UTR inh,BJeLR viability,Sa ugtP lethal,Autofluor counter
O=C(CNC(=O)c1ccccc1F)OC1CCOC1=O (stereo unspecified),1.7,7.5,-3.6,-2.5,.,2.1,3783
CC1=C(C#N)C(NC(=O)c2ccc(Cl)cc2)(C(F)(F)F)C(=O)N1 (stereo unspecified),3.0,5.6,-2.6,-20.6,-0.7,-4.8,2092
COc1ccccc1NC(=S)N(Cc1ccc(C(=O)O)cc1)Cc1ccc(OC)c(OC)c1,6.8,-2.0,9.0,-24.0,-7.0,11.5,4236
CC(=O)Nc1c(S(=O)(=O)c2ccccc2)c2nc3ccccc3nc2n1Cc1ccccc1,3.8,2.3,5.8,-17.5,0.2,-5.6,2838
CCN(CC)CCNC(=O)c1cn(CC)c2ccc(S(=O)(=O)N3CCc4ccccc4C3)cc2c1=O,-1.3,7.2,5.2,-7.2,-2.9,-0.4,5481
COc1ccc(C(c2nnnn2Cc2cccs2)N2CCN(c3ccccc3F)CC2)cc1 (stereo unspecified),-0.8,.,.,-18.7,11.1,6.1,4190
Cc1nc2c(C(=O)NCc3ccccc3Cl)c[nH]n2c(=O)c1Cl,1.5,8.5,13.6,-17.8,3.7,-10.1,13100
O=C(CCN1CCN(CC(=O)Nc2ccccc2F)CC1)Nc1ccccc1F,-1.5,.,.,-11.0,.,9.3,2828
Cc1cc(C(=O)COC(=O)c2cnccn2)c(C)n1-c1ccc(Br)cc1,6.5,20.3,13.0,-29.4,.,-1.5,3518
Cc1nn(CC(=O)NCc2ccccn2)c(C)c1[N+](=O)[O-],1.9,-0.7,6.2,-24.2,-0.2,5.3,5393
CC(C)[C@H](NC(=O)[C@@H]1CSC2c3ccccc3C(=O)N21)C(=O)NCc1ccncc1 (stereo partly specified),2.6,8.2,-1.3,-8.2,9.8,3.8,5565
Cc1cc(OC2CCCCC2)nc(-c2ccccc2O)n1,5.6,1.8,14.2,-27.4,0.2,-9.5,22117*
CCOc1ccc(NC2=C(Cl)C(=O)N(C3CCCCC3)C2=O)cc1,-8.3,1.1,0.6,-26.8,-3.9,-0.4,2463
O=C(C1CCCN(S(=O)(=O)c2ccc(Br)cc2)C1)N1CCN(Cc2ccccc2)CC1 (stereo unspecified),-1.3,7.1,4.9,-3.4,2.9,7.3,55843*
O=C(COc1ccc(-c2ccccc2)cc1)NNC(=O)NC1CCCCC1,5.0,17.9,3.1,-7.7,3.0,6.1,2132
CCOC(=O)/C(C)=N/NC(=O)c1ccc([N+](=O)[O-])cc1,.,.,.,-17.9,4.3,.,3003
O=C(CN1CCN(c2ccc(F)cc2)CC1)Nc1cccnc1Cl,-0.2,-13.0,6.2,4.5,-2.4,3.7,2146
COc1cccc(OC)c1C(=O)Nc1ccc2c(c1)n(C)c(=O)n2C,-0.6,-7.2,10.4,-36.2,0.1,1.8,3331
Cc1ccc(OCCCSc2ncccn2)cc1C,12.5,2.1,4.8,-82.1,13.4,13.8,3674
COc1cccc(CN2CC(C(=O)NCc3ncc(C)[nH]3)CCC2=O)c1 (stereo unspecified),1.9,3.9,-2.9,-8.1,1.9,6.0,6142
Cc1ccc(-n2ncc(-c3nnc(SCC(=O)NC4CCCC4)o3)c2N)cc1C,.,.,.,-20.9,4.0,.,4443
CCOc1ccc(C(=O)OCC(=O)NCCCc2ccccc2)cc1,-3.6,2.7,-3.5,-19.3,-5.1,1.7,2951
CCOc1ccc(N2C(=O)CSC2=NC#N)cc1,0.7,10.3,0.1,-29.5,.,2.2,2942
COc1ccccc1N1CCN(C(=O)CCCNC(=O)Cn2cnc3sc(C)c(C)c3c2=O)CC1,-1.6,-9.5,1.0,-6.9,-9.1,8.3,5935
COC(=O)/C(=N/Nc1ccccc1C)Sc1nnc(C(O)c2ccccc2)n1-c1ccccc1 (stereo unspecified),.,.,.,-6.9,-6.9,.,2029
CCn1c(Cc2ccccc2)nnc1SCC(=O)Nc1nccs1,7.0,4.0,2.2,-16.7,-10.6,14.9,5919
O=C(Nc1cccnc1Cl)c1cc(-c2ccc(Cl)cc2)on1,4.4,-1.4,-2.8,-27.2,0.7,-7.3,3812
C#CCNC(=O)C1=C[C@@H](c2ccccc2)C[C@@H](OCCCCO)O1,.,.,.,-21.6,-1.5,.,4245
CN(C)c1cccc(NC(=O)Cc2ccc(F)cc2)c1,-0.8,9.9,6.7,-15.2,3.5,0.1,7281
Fc1ccc(NC(=S)N2CCSC2c2cccs2)cc1 (stereo unspecified),12.4,-6.2,-3.5,-5.6,12.0,3.9,4139
Nc1nc2c(c3c1c(=O)oc1ccccc13)CCCCC2,-8.8,14.2,4.3,-19.0,3.2,-2.1,2814
COc1c(Cl)cc(C(=O)Nc2ccc(Cl)cn2)cc1Cl,-2.7,.,.,-53.5,-7.5,15.3,2484
CC1CCc2nc3ccccc3c(C(=O)OCC(=O)N3CCc4ccccc43)c2C1 (stereo unspecified),-2.7,10.1,1.0,-5.5,2.4,-19.7,2445
O=C(CNc1cccc(S(=O)(=O)N2CCCCC2)c1)Nc1cccc(F)c1,4.5,1.8,-2.0,-2.4,2.7,-3.9,7296
COc1ccccc1-n1ccnc(SCC(=O)NC2CCCCC2)c1=O,0.6,-2.6,12.8,-15.9,-10.8,2.2,6412
Cc1c(C(=O)Oc2ccc(Cl)cc2)n(C)oc1=O,5.5,10.6,4.0,-5.0,-4.6,-1.6,4423
CCCOc1ccc(Cc2c(Cl)nc(SC)nc2OC)cc1,-3.9,-1.7,6.9,-11.4,4.2,89.2*,2257
CC/C(=N\NC(=O)c1c[nH]c2ccccc12)c1cccs1,.,.,.,-91.4,-7.5,.,1922
Oc1cccc(NC(=S)N=Nc2c(O)[nH]c3ccccc23)c1,5.0,4.4,0.7,-11.7,0.2,-10.3,3981
CC(C)=CCC/C(C)=C/CNC(=O)C[C@H]1C[C@H](C(=O)N2CCCCC2)[C@@]2(C)c3[nH]c4cc(CCC(=O)N(C)C)ccc4c3CCN2C1=O,-0.2,-6.5,2.0,-6.4,.,7.4,3468
O=C(Nc1ccc(Cl)cn1)C1CCCN1S(=O)(=O)c1ccc(Cl)cc1 (stereo unspecified),3.6,-2.3,-0.1,-5.6,-10.6,5.1,10844
CC(=O)Nc1ccc(S(=O)(=O)NCCc2ccccc2)cc1,4.0,5.8,1.0,.,7.4,3.5,11189
O=[N+]([O-])c1ccc2c(c1)C(=Nc1ccccc1)c1ccccc1-2,2.7,0.9,2.4,-28.7,.,-6.5,2975
CC/C(C)=N/Oc1nc(C)cc(C)n1,.,.,.,-9.5,-1.5,.,2907
CCOc1ccc(-c2c(C(=O)NN=Cc3ccccc3)nnn2-c2nonc2N)cc1,2.2,7.7,0.2,.,.,2.4,.
O=C(C[n+]1ccc(C(=O)NN=Cc2ccc(O)cc2)cc1)c1ccccc1,6.0,3.9,9.7,.,.,0.3,.
CCCCNC(=S)NNC(=O)CCn1nc(C)c(Br)c1C,6.1,5.9,5.6,-7.5,3.6,10.9,8381
Cc1cc(C)c2nc(-c3ccccn3)cc(C(=O)Nc3cc(C)on3)c2c1,1.0,.,.,-6.3,-6.6,-16.3,2762
O=C1NC(=O)c2c(NC(=O)C3CCCO3)cccc21 (stereo unspecified),2.6,-0.8,-4.4,-14.3,2.3,5.0,6792
COc1ccc(-n2c(-c3ccccc3)nc3ccccc3c2=O)cc1,0.3,11.5,5.0,-31.5,10.0,2.1,4198

# Other entries follow:
SMILES,Sa RN4220 lethal,Mtb hypoxia rep,Mtb hypoxia rep growth,PrP 5UTR inh,BJeLR viability,Sa ugtP lethal,Autofluor counter
O=C(Nc1ccc(-c2cn3c(n2)SCC3)cc1)c1ccc2ccccc2n1,5.4,-12.5,-2.6,-27.8,-5.6,1.9,3895
CCCN1C(=O)C(=Cc2ccc(C)s2)SC1=Nc1ccc(OC)cc1,-2.9,6.3,-3.7,.,.,64.0,.
Cc1ccc(C(=O)NNC(=O)CSc2nnc(-c3ccncc3)n2C)cc1,1.3,5.4,5.1,-11.4,2.7,2.4,16351*
COc1ccc(F)cc1S(=O)(=O)NCc1cc(=O)n(C)c(=O)n1C,1.4,-1.5,5.2,7.9,-0.5,2.4,5481
COc1cc2cc(C(=O)Nc3ccc4c(c3)OCCO4)[nH]c2cc1OC,0.3,10.2,7.9,41.3,-1.7,-6.7,5258
CC(C)[C@H](NC(=O)c1ccc(Cl)cc1Cl)C(=O)NNC(=O)c1ccco1,0.6,-3.6,5.2,-11.2,.,-1.2,3901
Cc1cc(NC(=O)CN2C(=O)NC3(CCCCCC3)C2=O)ccc1Br,-2.2,2.2,-4.1,.,.,-4.7,5955
Cc1cccc(/C=C2\CCC(=C3SCCCS3)C2=O)c1,-8.5,.,.,54.8*,4.5,-6.4,3312
CCCCn1c(N)c(N(CCC(C)C)C(=O)c2cccc(S(=O)(=O)N3CCN(C)CC3)c2)c(=O)[nH]c1=O,3.2,-1.8,8.3,-11.1,-15.3,0.4,5946
COc1ccc(N(CC(=O)Nc2ccc(OC)cc2OC)S(=O)(=O)c2ccccc2)cc1,-4.9,5.8,21.9,-7.9,-4.0,6.0,4596
CC(=O)OCC1(C)CN(c2ccccc2)N(C(=O)c2ccc(C(C)(C)C)cc2)C1=O (stereo unspecified),-7.4,-11.0,3.6,-10.2,-12.2,-7.2,2528
COc1ccc(CNC(=O)c2cncc(Br)c2)cc1,-0.1,.,.,-20.5,2.6,5.2,4009
O=S(O)OC1CS(=O)(=O)CC1c1ccccc1 (stereo unspecified),0.1,7.9,-3.5,-22.4,6.3,5.7,3175
CC(NC(=O)NC1CCCCC1)c1ccc2c(c1)OCO2 (stereo unspecified),-0.2,8.0,16.1,-21.4,-0.3,3.7,2630
Cc1ccc(S(=O)(=O)NC(=O)Nc2ccc(F)c(F)c2)cc1,2.9,6.5,-8.8,-24.0,2.1,-1.5,3898
CCC(=O)c1ccc(OCC(=O)Nc2ccc(N3CCCCC3)cc2)cc1,4.6,4.3,3.9,-9.8,.,6.4,4703
CCOC(=O)CC1NC(=O)c2ccccc21 (stereo unspecified),0.6,.,.,-10.2,5.0,1.2,2467
CC(=O)N1CN(CCCn2ccnc2)Cc2c1sc1c2CCCC1,0.2,.,.,-31.2,9.6,-1.9,4361
O=C(NCc1cccs1)c1cc(C2CC2)on1,-5.0,.,.,-18.1,-0.6,0.5,6285
CCOC(=O)c1c(NC(=O)C2C3C=CC(CC3)C2C(=O)O)sc(C)c1C (stereo unspecified),.,.,.,-7.6,2.7,.,2119

# Structural class, the compounds so far containing two or more sulfur atoms
SMILES,Sa RN4220 lethal,Mtb hypoxia rep,Mtb hypoxia rep growth,PrP 5UTR inh,BJeLR viability,Sa ugtP lethal,Autofluor counter
CCn1c(Cc2ccccc2)nnc1SCC(=O)Nc1nccs1,7.0,4.0,2.2,-16.7,-10.6,14.9,5919
Fc1ccc(NC(=S)N2CCSC2c2cccs2)cc1 (stereo unspecified),12.4,-6.2,-3.5,-5.6,12.0,3.9,4139
CCCN1C(=O)C(=Cc2ccc(C)s2)SC1=Nc1ccc(OC)cc1,-2.9,6.3,-3.7,.,.,64.0,.
Cc1cccc(/C=C2\CCC(=C3SCCCS3)C2=O)c1,-8.5,.,.,54.8*,4.5,-6.4,3312
O=S(O)OC1CS(=O)(=O)CC1c1ccccc1 (stereo unspecified),0.1,7.9,-3.5,-22.4,6.3,5.7,3175

# The listing continues.
SMILES,Sa RN4220 lethal,Mtb hypoxia rep,Mtb hypoxia rep growth,PrP 5UTR inh,BJeLR viability,Sa ugtP lethal,Autofluor counter
CC(=O)C1CCC2C3CCC4CC(O)CC[C@]4(C)C3C(=O)C[C@]12C (stereo partly specified),9.9,6.9,2.2,.,.,5.9,.
CC(C)CNC(=S)NC1CCCC1,7.7,13.1,11.4,-2.7,-9.3,-6.3,20457*
Cc1ccc(S(=O)(=O)CCC(=O)c2ccc(F)cc2)cc1,-2.8,6.4,0.5,-4.4,9.5,8.6,4284
O=C(CSc1nc(-c2ccccc2)c(-c2ccccc2)[nH]1)Nc1nccs1,6.3,-2.1,4.6,9.6,-3.6,14.7,8352
Cn1c(CC(=O)Nc2ccccc2)c(Sc2ccccc2)c2ccccc21,-1.7,-1.2,2.5,-14.2,3.6,-9.4,2515
CC(C)C[C@H](NC(=O)C1(c2ccccc2)CCN(C(=O)OC(C)(C)C)CC1)C(=O)N1CCC[C@H]1C(=O)O,2.2,-1.1,-6.1,-13.4,-11.3,-0.9,5560
